Screening data (PubChem)
MazF activator: activators of E. coli MazEF toxin-antitoxin RNase, primary screen, biochemical, fluorescence, uHTS | activation, % at 20 µM | Endoribonuclease toxin MazF (Escherichia coli (strain K12)), P0AE70 | FAM/BHQ RNA-DNA oligo cleavage fluorescence, 5 h | actives 0.32% (n = 350,000); in the data active = activation above about 50%
PrPC TRFRET: inhibitors of human cell surface prion protein PrPC, primary screen, cell-based, TR-FRET; TR-FRET read-out; Major prion protein (Homo sapiens), P04156; inhibition, % at 13.8 µM; AID 720596, 2013; actives 0.43% (n = 370,000); in the data active = inhibition above about 24%; also: 0% = median of the test wells and 100% = reference compound wells
Mtb FBA inh: Mtb FBA enzyme inhibitors, primary screen, biochemical, fluorescence, strain H37Rv; AID 588726, 2011; actives 2.3% (n = 360,000); inhibition, % at 1 µM; purified M. tuberculosis FBA, fluorescence read-out; Fructose-bisphosphate aldolase (Mycobacterium tuberculosis (strain ATCC 25618 / H37Rv)), …; in the data active = inhibition above about 27%;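 also: 0% = vehicle and 100% = reference inhibitor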
Rv3671c inh: Rv3671c serine protease inhibitors, primary screen, biochemical, fluorescence polarization, M. tuberculosis H37Rv. inhibition, % at 5.96 µM. actives 0.048% (n = 320,000). AID 2606, 2010; in the data active = inhibition above about 38%;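 also: extracellular domain of Rv3671c used as enzyme; 0% = enzyme with DMSO and 100% = no enzyme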
Mtb UGM inh: M. tuberculosis UGM enzyme inhibitors, primary screen, biochemical, fluorescence polarization, single point; UDP-galactopyranose mutase (Mycobacterium tuberculosis (strain ATCC 25618 / H37Rv)), …; purified UGM, fluorescence polarization probe displacement; inhibition, % at 10 µM; actives 0.06% (n = 320,000); AID 504406, 2011; in the data active = inhibition above about 10%, passing the limit was not always enough
* = called active by the depositor; / = no result given.

The opening 5 compounds as a preview:
SMILES	MazF activator	PrPC TRFRET	Mtb FBA inh	Rv3671c inh	Mtb UGM inh
C=C(CN(C)C)C(=O)c1ccc2c(c1)OCO2	5	1	-3	/	/
O=c1c(Cl)c(O)ccn1C1OC(CO)C(O)C1O (stereo unspecified)	3	6	-1	/	/
O=C1NN(c2ccccc2)C(=O)/C1=C/c1ccc(Sc2ccc(Cl)cc2)o1	-9	1	1	-2	-0.4
O=C(Cn1c(C(=O)c2ccccc2)nc2ccccc21)c1ccc(Cl)cc1	-2	2	1	/	/
CC[N+](CC)(CC)CCOc1ccc(/C=C/c2ccccc2)cc1	23	-2	6	-1	0.8

All compounds of this part (from the top)
SMILES	MazF activator	PrPC TRFRET	Mtb FBA inh	Rv3671c inh	Mtb UGM inh
C=C(CN(C)C)C(=O)c1ccc2c(c1)OCO2	5	1	-3	/	/
O=c1c(Cl)c(O)ccn1C1OC(CO)C(O)C1O (stereo unspecified)	3	6	-1	/	/
O=C1NN(c2ccccc2)C(=O)/C1=C/c1ccc(Sc2ccc(Cl)cc2)o1	-9	1	1	-2	-0.4
O=C(Cn1c(C(=O)c2ccccc2)nc2ccccc21)c1ccc(Cl)cc1	-2	2	1	/	/
CC[N+](CC)(CC)CCOc1ccc(/C=C/c2ccccc2)cc1	23	-2	6	-1	0.8
C[C@@H]1CN([C@H](C)CO)C(=O)c2cc(NC(=O)Nc3ccccc3)ccc2O[C@@H](C)CCCCO[C@H]1CN(C)S(=O)(=O)c1ccc(F)cc1	/	4	/	/	/
c1ccc(CN2CCC3CC2c2cc(N4CCOCC4)ccc23)cc1 (stereo unspecified)	4	-9	-4	/	/
CC(C)[N+]12CCC(CC1)C(C(O)(c1ccccc1)c1ccccc1)C2 (stereo unspecified)	0	0	-2	7	2.2
COc1ccc(S(=O)(=O)n2c(C)nc3ccccc32)cc1C	-1	5	1	-3	2.7
CC(=O)c1cn(S(=O)(=O)c2ccccc2)c2ccccc12	-4	1	-2	2	-0.7
C#Cc1cccc(N2C(=O)C3C4C=CC(C3C2=O)C2C(=O)N(c3cccc(C#C)c3)C(=O)C42)c1 (stereo unspecified)	-7	-8	1	/	/
O=C1NC[C@H](c2ccccc2)OC(=O)[C@@H](Cc2ccc(F)cc2)CC/C=C/C[C@@H]1CC(=O)N(CCO)Cc1ccccc1	-2	5	1	-4	4.6

3 structures already listed, sorted by molecular weight, low to high:
SMILES	MazF activator	PrPC TRFRET	Mtb FBA inh	Rv3671c inh	Mtb UGM inh
CC(=O)c1cn(S(=O)(=O)c2ccccc2)c2ccccc12	-4	1	-2	2	-0.7
c1ccc(CN2CCC3CC2c2cc(N4CCOCC4)ccc23)cc1 (stereo unspecified)	4	-9	-4	/	/
O=C1NC[C@H](c2ccccc2)OC(=O)[C@@H](Cc2ccc(F)cc2)CC/C=C/C[C@@H]1CC(=O)N(CCO)Cc1ccccc1	-2	5	1	-4	4.6

A portion of the library; the hit share may differ from the screen's.
